MT1-MMP reporter: inhibitors of MT1-MMP promoter transcription, cell-based, luciferase reporter, luminescence (AID 618). MT1-MMP promoter luciferase reporter cells, luminescence. calls from a first round at 10 µM; hits with a dose series show EC50 in µM. 0.62% of 87,000 active;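 active = over half of the reporter light lost at 10 µM or EC50 under 50 µM; inactive = the rest and hits that failed the dose series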;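 also: actives suppress MT1-MMP promoter-driven transcription so potencies describe inhibitors; HT1080 fibrosarcoma cells; overnight exposure; toxic or luciferase-blocking compounds were not removed from the actives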
WNV NS2B-NS3 inh: WNV NS2B-NS3 proteinase inhibition; WNV NS2B-NS3 protease, fluorogenic substrate Ex360/Em465; active compounds read low; 0.18% of 65,000 active; z-score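 (tested at a level between 10 and 100 µM)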; P06935;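 active = z-score at -3 or under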;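 also: score is relative to mean and spread of the compound wells of a plate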
Target sequence (P06935 1371-1501 limits assumed): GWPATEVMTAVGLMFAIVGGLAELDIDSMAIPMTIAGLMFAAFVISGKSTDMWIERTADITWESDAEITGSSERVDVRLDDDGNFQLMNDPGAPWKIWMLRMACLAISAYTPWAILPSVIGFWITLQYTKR
Target sequence (P06935 1502-1679 limits assumed): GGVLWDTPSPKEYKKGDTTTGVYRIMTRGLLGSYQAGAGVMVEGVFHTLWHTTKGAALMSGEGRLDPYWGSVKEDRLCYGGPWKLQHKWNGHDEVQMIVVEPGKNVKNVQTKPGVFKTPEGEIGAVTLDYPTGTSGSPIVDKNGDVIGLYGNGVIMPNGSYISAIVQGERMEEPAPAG
Hsc70 ATP site: Hsc70 inhibitors, probe displacement, primary screen, biochemical, fluorescence polarization (AID 568); Hsc70 fluorescence polarization, probe displacement; higher % means a stronger effect; strong numbers were not always called active; 83,000 tested, under 10 active; one-dose displacement, % at 20 µM; IC50 in µM for titrated hits;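 active = displacement above 50% without optical interference and an IC50 on retest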;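 also: ATPase domain with a fluorescein-tagged ATP probe; 0% = vehicle and 100% = excess ADP; read after one hour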
The depositor's hits bear a star; i = inactive; x = not tested or not shown. This is a subset, so the mix of outcomes need not match the whole.

The line under a structure holds: MT1-MMP reporter, WNV NS2B-NS3 inh, Hsc70 ATP site
> O=C(NCc1ccc(F)cc1)c1ccc(CS(=O)(=O)Cc2ccccc2F)o1
  i, 1.3, -10%
> O=C(NC(Cc1ccccc1)C(=O)OCC(=O)N1CCc2ccccc21)c1ccco1 (stereo not given)
  i, -0.09, 5.7%
> Cc1ccc(-c2nnc(SCc3nc4ccccc4[nH]3)n2Cc2ccco2)cc1
  i, x, -1.1%
> CCCn1c(SCC(=O)c2cc(OC)ccc2OC)nc2c1c(=O)n(C)c(=O)n2C
  i, -1.1, -1.9%
> Cn1c(Cc2ccc3c(c2)OCO3)nnc1SCC(=O)N1CCc2ccccc2C1
  i, 0.5, -4.0%
> N#Cc1c(NC(=O)Cn2c(=O)oc3ccccc32)oc(-c2ccccc2)c1-c1ccccc1
  i, -0.7, 1.2%
> COc1ccc(-c2nnc(N(C)C(=O)C3CCOC3)s2)cc1 (stereo not given)
  i, x, -6.0%
> Cc1c(Cl)cccc1NC(=O)CSc1nnc(CCNC(=O)OC(C)(C)C)o1
  i, 0.0086, -8.7%
> COc1ccc(-c2nnn(CC(=O)c3ccc4c(c3)OCCO4)n2)cc1OC
  i, 0.28, -2.6%
> COc1ccc(/C=N/n2c(C)nnc2C)c(OC)c1OC
  i, 0.26, -2.0%
> CCN1CCN(C(=O)CN(c2cc(OC)ccc2OC)S(C)(=O)=O)CC1
  i, 0.69, 12%
> Cn1c(=O)c2c(ncn2Cc2ccc(Cl)c(Cl)c2)n(C)c1=O
  i, -0.24, -6.5%
> CCN(CC)c1ccc2cc(-c3nnc(-c4ccc(Br)cc4)o3)c(=O)oc2c1
  i, x, -86%
> c1ccc(-n2cnnc2SCc2cn3ccccc3n2)cc1
  i, 1.3, 1.1%
> Cc1cc(NC(=O)CSc2nc(C(C)C)nc3ccccc23)no1
  i, x, 6.9%
> COc1ccc(NS(=O)(=O)c2ccc(N3C(=O)CCC3=O)cc2)cc1
  i, x, 0.3%
> Cc1cc2c(s1)c1cnn(Cc3ccccc3F)c(=O)c1n2C
  i, -0.74, 9.3%
> O=S(=O)(Cc1ccc(Cl)cc1)NCC1CCCO1 (stereo not given)
  i, -1.2, 2.1%
> O=C(CSc1nnc(Cc2cc(=O)[nH]c(=O)[nH]2)n1-c1ccc(F)cc1)NC1CCCC1
  i, -0.75, 7.6%
> CCOC(=O)C1=C(c2ccccc2)Nc2nc(C)nn2C1c1cccc(OC)c1OC (stereo not given)
  i, 0.93, 3.7%
> CCCC(c1nnnn1C(C)(C)CC)N1CCN(C2CCCC2)CC1 (stereo not given)
  i, 0.25, 9.7%
> CC(C)CNC(=O)NC(=O)COc1c(F)c(F)cc(F)c1F
  i, x, 0.2%
> CC(C)C[C@H](NC(=O)NCCc1ccc(Cl)cc1)C(=O)O
  i, 0.74, 0.2%
> O=C(O)c1ccc(-n2nc(C(F)(F)F)c3c2-c2ccoc2CC3)cc1
  i, 0.56, 2.0%
> CN1CCN(C(=O)C(C(=O)c2ccc(F)cc2)n2ccccc2=O)CC1 (stereo not given)
  i, x, 4.1%
> CC(C)(C)C(=O)Nc1ccc(N2CCCC2)cc1
  i, x, -5.6%
> N#Cc1nc(-c2ccco2)oc1NCc1ccc(F)cc1
  i, -0.27, 6.1%
> CCOC(=O)N1CCC(Nc2c(-c3ccc(C)c(C)c3)c(=O)c2=O)CC1
  i, 0.95, 5.1%
> CCOc1ccc(N=C(NC#N)SCC(=O)NC2CC2)cc1
  i, 0.4, 4.4%
> CCCN1CCN(CCCNC(=O)Cn2cc3c(n2)CCCC3)CC1
  i, -0.45, -1.3%
> CCN1CCn2c3c(c4cc(Br)ccc42)CCCC31 (stereo not given)
  i, -1.5, -3.6%
> COCCn1c(SC(C)C(=O)Nc2ncc(Cl)cc2Cl)nc2ccccc21 (stereo not given)
  i, x, 2.6%
> CC(C)Oc1ccc(C(=O)NC(C)(C)CO)cc1
  i, x, -1.8%
> CCn1c(=O)c2ccccc2n2c(SCC(=O)NCc3cccs3)nnc12
  i, 1, -1.8%
> Cc1[nH]c2ccccc2c1[C@H]1[C@@H](CC#N)C1(C)C
  i, x, 4.1%
> CC(C)C(c1nnnn1C1CCCC1)N1CCc2ccccc21 (stereo not given)
  i, 1.3, -0.7%
> N#Cc1cc2c(nc1SCC(=O)N1CCCCC1)CCCCC2
  i, -0.0068, 4.9%
> CCC12CN3CC(CC)(CN(C1)C3c1c(O)ccc3ccccc13)C2=O (stereo not given)
  i, 0.31, 0.9%
> COCCN1Cc2cccc(C(=O)Nc3c(C)cccc3C)c2C1=O
  i, -0.28, -6.6%
> O=C(O)c1ccc2noc(-c3ccccc3)c2c1
  i, -0.9, 4.2%
> Cc1cc(C(=O)Nc2c(F)cc(F)cc2Br)no1
  i, 0.8, -2.0%
> S=c1nc(-c2ccccc2)n(CCCn2ccnc2)c2c1CCCC2
  i, 0.99, -1.2%
> O=S(=O)(NCc1ccco1)N1CCOCC1
  i, -0.37, -4.6%
> O=S(=O)(NC(=NC1CCCC1)C(F)(F)F)c1ccccc1
  i, -0.74, 101%
> COc1ccc(OC)c(C2C(C(N)=O)=C(C)Nc3nc(CCCO)nn32)c1 (stereo not given)
  i, 0.82, 1.9%
> O=C(CN1CCC(n2nnc3cc(F)ccc32)CC1)N1CCc2ccccc2C1
  i, -0.12, -1.2%
> COc1ccccc1NC(=O)CSc1nnc(Cn2cnc3ccccc32)n1C
  i, 0.05, 0.5%
> CCOc1cc(C)c(S(=O)(=O)N2CCCC2)cc1C
  i, 0.14, 2.9%
> COc1ccc(-c2nnc(N(C)C(=O)C3CCCO3)s2)cc1 (stereo not given)
  i, x, 3.4%
> CS(=O)(=O)N(CC(=O)N1CCOCC1)c1ccc2c(c1)OCO2
  i, 0.29, 0.2%

(continued)
The line under a structure holds: MT1-MMP reporter, WNV NS2B-NS3 inh, Hsc70 ATP site
> CCOC(=O)/C(C#N)=C1/C=C(C)NC(c2ccccc2O)=N1
  i, 1.4, -4.1%
> Cc1ccc(Cn2ncc3c(N4CCN(c5ccc(C)cc5)CC4)ncnc32)cc1
  i, 0.44, 2.0%
> CC(C)(C)NC(=O)CSc1nnc(-c2ccccn2)n1-c1ccccc1
  i, 1, 2.1%
> O=S(=O)(/C=C/c1ccccc1)NCCc1ccccn1
  i, 0.8, -0.5%
> CNC(=O)c1[nH]cnc1C(=O)Nc1cccc(OC)c1
  i, -0.33, 3.7%
> Cc1ccc(C(=O)Nc2ccon2)cc1S(=O)(=O)N1CCCC1
  i, x, 4.3%
> c1cc(Nc2ncnc3sccc23)cc(-c2nnc3n2CCCCC3)c1
  i, 1.4, -4.9%
> CCOC(=O)c1ccc2c(c1)nc(SCC(=O)c1ccco1)n2CC
  i, -0.28, -5.3%
> Cc1cc(C)n2nc(SCN3C(=O)c4ccccc4C3=O)nc2n1
  i, 0.4, -3.9%
> CCOC(=O)CSc1nc2cc(C)ccc2cc1C#N
  i, 0.35, 3.1%
> CN(C)c1oc(-c2ccccc2Cl)nc1S(=O)(=O)c1ccccc1
  i, -1.1, -2.2%
> COc1ccc(NCc2ccc3c(c2)OCO3)cc1Cl
  i, -1.4, 3.4%
> COc1ccc(CCCc2nnc(SCC(=O)Nc3nc(C)cs3)n2C)cc1
  i, 0.15, -3.3%
> COc1ccc(C2=C(O)C(C)N(c3ccccc3)C2=N)cc1OC (stereo not given)
  i, 0.09, 5.6%
> Cc1cc(C)nc(NS(=O)(=O)c2ccc(Br)s2)c1
  i, 0.16, 0.7%
> CCCn1c(-c2ccc(OC)cc2)nc2nc3ccccc3nc21
  i, -0.56, -7.5%
> Cc1cc(C)c2c(N)c(C(=O)N3CCN(c4ncccn4)CC3)sc2n1
  i, 0.66, -1.8%
> O=c1c2[nH]c3ccccc3c2ncn1CCN1CCNCC1
  i, -0.07, 4.1%
> Cn1nnnc1SCC(=O)N1c2ccccc2Sc2ccccc21
  i, 0.17, -2.6%
> Cc1ccc(NS(=O)(=O)c2cn(C)cn2)cc1
  i, -0.44, 8.5%
> CCNc1nc(NCC)nc(C(=O)NN)n1
  i, x, 0.4%
> O=C1CCCCCN1C(=O)c1cccc(C(=O)N2CCCCCC2=O)c1
  i, -0.16, -9.0%
> COc1ccccc1NC(=O)NC1(C(=O)N2CCCCCC2)CCCCC1
  i, x, 0.4%
> O=C(O)CCC(=O)OCC1CCCO1 (stereo not given)
  i, 0.36, -2.1%
> COc1ccc(C)cc1-n1nnnc1SCC1CCCCO1 (stereo not given)
  i, 0.18, -3.1%
> CC(C)OC(=O)c1cc(NC(=O)C2C3CCC(O3)C2C(=O)O)cc(C(=O)OC(C)C)c1 (stereo not given)
  i, 0.05, 3.3%
> CCCCC(=O)Nc1ccc(N2CCN(C(=O)CC)CC2)cc1
  i, -2.6, 2.8%
> CC(C)n1nc(C(=O)Nc2nc3ccc(S(C)(=O)=O)cc3s2)c2ccccc2c1=O
  i, -0.49, 0.2%
> Cc1ccc(N2CCN(c3cc(C)nc4nc(C)nn34)CC2)c(C)c1
  i, -1.1, 3.5%
> CCSC1=C(C#N)C2(CCCCC2)C(C#N)=C(N)N1
  i, -0.06, -4.6%
> CCOCCCNC(=O)NC12CC3CC(CC(C3)C1)C2
  i, -0.09, 2.7%
> CN1CCN(C(=O)CCC(=O)c2ccc(F)cc2)CC1
  i, 0.41, -5.6%
> COc1cc(C(=O)N2CCN(C(=O)C(Cc3cc(C)ccc3C)NC(C)=O)CC2)cc(OC)c1OC (stereo not given)
  i, 0.86, 2.6%
> Cn1nc([N+](=O)[O-])c2c(-c3nc4ccccc4s3)c(N)n(C3CCCCC3)c2c1=O
  i, x, 4.5%
> CCOC(=O)/C=C1\NC(C)(C)Cc2cc(OC)c(OC)cc21
  i, x, 0.7%
> CCN1CCN(C(=O)CCN2C(=O)COc3ccc(C)cc32)CC1
  i, -0.25, -1.6%
> CCn1c(CCNC(=O)c2cccs2)nnc1SCC(=O)c1ccc(OC)cc1
  i, 0.41, 0.2%
> COc1nc(N2CCOCC2)nc(-n2cccc2)n1
  i, -1.1, 1.9%
> CC(=O)Nc1ccc(S(=O)(=O)n2cnc3ccccc32)cc1
  i, x, 6.2%
> CCOc1ccccc1N1CC(O)=C(c2nc3ccccc3s2)C1=N
  i, 1.3, -16%
> Cc1nn(CCC(=O)O)c2nc(-c3cccnc3)cc(C(F)(F)F)c12
  i, -1.5, 1.0%
> CC1=CC(C)C(/C=N/n2cnnc2)C(C)C1 (stereo not given)
  i, 0.46, -8.6%
> COC(=O)c1ccc(C)c(N(CCO)CCO)c1
  i, 0.86, -0.7%
> COc1ccc2[nH]cc(C(=O)CN3CCN(C4CCCCC4)CC3)c2c1
  i, -0.18, -3.7%
> CCn1c(SCC(=O)Nc2sc3c(c2C#N)CCCC3)nnc1-c1ccncc1
  i, x, 9.3%
> Cc1ccc2c(c1)c(C)c(C)n2CC(O)Cn1nc(C)cc1C (stereo not given)
  i, -0.95, 9.5%
> O=C(Nc1cc(N2CCOCC2)ncn1)NC1(C(F)(F)F)Oc2ccc(Cl)cc2O1 (stereo not given)
  i, 0.51, -1.6%
> O=C(CSc1nnc(Cc2ccccc2)n1Cc1ccccc1)NCc1ccco1
  i, x, 1.3%
> O=C(Nc1cccnc1)c1ccc(COCC(F)(F)F)cc1
  i, -0.35, -3.3%
> COc1ccc(S(=O)(=O)Nc2ccc(O)c3ccccc23)cc1
  i, -0.78, 0.9%

Additional records.
The line under a structure holds: MT1-MMP reporter, WNV NS2B-NS3 inh, Hsc70 ATP site
> Cc1nc(NNC(=O)c2ccccc2)cc(-c2ccccc2)n1
  i, x, -2.2%
> O=C(CCCOc1ccccc1)N1CCN(c2ccccc2)CC1
  i, x, 0.7%
> CC1(C)S[C@@H]2[C@H](NC(=O)[C@H](N)c3ccccc3)C(=O)N2[C@H]1C(=O)O
  i, -0.28, 1.0%
> COCCn1c(SCC(=O)Nc2cccc(C(=O)OC)c2)nc2ccccc2c1=O
  i, 0.03, -3.4%
> COc1ccc(OC)c(S(=O)(=O)n2nnc3ccccc32)c1
  i, -0.57, 4.1%
> CCN(CC)CC(=O)c1ccc(-c2ccccc2)cc1
  i, 1.4, -1.0%
> CCOc1ccc(C(CC(=O)O)NC(=O)c2ccco2)cc1 (stereo not given)
  i, x, 3.6%
> CCN(CCCNC(=O)CN(C)S(=O)(=O)c1ccc2c(c1)CCC(=O)N2)c1cccc(C)c1
  i, 1.3, 5.0%
> CCOc1cc2[nH]c(=O)n(CCC(=O)N3CCN(c4ccccc4OC)CC3)c(=O)c2cc1OCC
  i, 0.05, -6.0%
> c1ccc(CCn2nnnc2CN2CCc3ccccc32)cc1
  i, -1.1, -9.7%
> CC1(C)Oc2ccc(C(=O)NC3CCCC3)cc2N(CC(=O)NC2CCCC2)C1=O
  i, -0.86, -3.1%
> CCOc1ccccc1N(C(=O)c1ccco1)C(C(=O)NC1CCCC1)c1cccnc1 (stereo not given)
  i, -0.65, -1.8%

An excerpt from above in order of number of heavy atoms, low to high.
The line under a structure holds: MT1-MMP reporter, WNV NS2B-NS3 inh, Hsc70 ATP site
> CCOc1ccc(C(CC(=O)O)NC(=O)c2ccco2)cc1 (stereo not given)
  i, x, 3.6%
> Cc1nc(NNC(=O)c2ccccc2)cc(-c2ccccc2)n1
  i, x, -2.2%
> CC1(C)S[C@@H]2[C@H](NC(=O)[C@H](N)c3ccccc3)C(=O)N2[C@H]1C(=O)O
  i, -0.28, 1.0%
> CC1(C)Oc2ccc(C(=O)NC3CCCC3)cc2N(CC(=O)NC2CCCC2)C1=O
  i, -0.86, -3.1%
> CCOc1ccccc1N(C(=O)c1ccco1)C(C(=O)NC1CCCC1)c1cccnc1 (stereo not given)
  i, -0.65, -1.8%
> CCOc1cc2[nH]c(=O)n(CCC(=O)N3CCN(c4ccccc4OC)CC3)c(=O)c2cc1OCC
  i, 0.05, -6.0%
